From PubChem BioAssay
UUG fidelity: modulators of start codon recognition fidelity in yeast | S. cerevisiae UUG-firefly luciferase reporter, luminescence/redox ratio | activity score, % at 18.7 µM | 0.13% of 350,000 active;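 active means replicate mean at a twofold rise or more, about +100% in these data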;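 further: firefly luciferase made from a UUG start codon reports start codon fidelity; reporter light over untreated wells divided by growth signal over untreated wells; some hits fall short of that in this replicate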
Env fusion inh: HIV envelope-mediated fusion inhibition | HeLa-JRFL Env/CEM21 cell fusion, luciferase | inhibition, % at 12.3 µM | 1.1% of 360,000 active;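 active means mean replicate inhibition score of at least 50 and every replicate individually at or above 50; inconclusive means only one of the two criteria met; inactive means mean below 50 and not all replicates reaching 50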;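 further: 0% = plate neutral controls and 100% = maraviroc near 300 nM; one replicate is shown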
MT1-MMP act inh: MT1-MMP (human) activation inhibition. P50281. HT1080 RFP-PRO-GFP cells, GFP/RFP ratio fluorescence, overnight; percent of plate control window, DMSO zero. GFP/RFP ratio change, % at 20 µM. 0.061% of 360,000 active. AID 651647;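 active means GFP/RFP ratio change of at least 30% with cell ATP level not reduced by more than half and red fluorescence within 50% of control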; further: strong numbers were not always called active
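Material – HT1080 RFP-PRO-GFP cells · Control set – DMSO wells and RFP-L50D-GFP cells · Incubation – overnight cell settling, then overnight compound exposure, 37 °C, 5% CO2 · Compound dosing – single-point 20 µM compound, 1% DMSO · Read-out – GFP/RFP fluorescence ratio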
eIF4H FP inh: inhibitors of RNA binding by human eIF4H. eIF4H fluorescence polarization binding assay. inhibition, % at 35 µM. 0.94% of 290,000 active. AID 2012;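 active means 50% or more with normal probe brightness, or confirmed in later tests; inconclusive means above 50% with abnormal brightness, or retests that disagree; inactive means below 50% or failed in later tests; about a fifth of its hits are not listed in these tables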;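 further: calls also rest on retests at 20 µM and on dose response follow-up; 0% = protein and probe with vehicle and 100% = probe without protein; strong numbers were not always called active; many hits fall short of the cut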
CSC inhib: blocks cancer stem cells; inhibition, % at 7.5 µM; 1.1% of 300,000 active; cancer stem cell-like cells viability, luminescence;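 active means mean at 75% or more and at least half the replicates too; inconclusive means mean and replicates disagree; tested in HMLE shEcad cells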;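 further: 0% = median of negative and 100% = median of positive control wells; the first replicate is given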
Rce1 inhib: inhibitors of yeast Ras-converting enzyme | Q03530 | yeast membranes, quenched prenylated peptide cleavage fluorescence | calls only | 0.27% of 290,000 active | AID 2563;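 active means fall in fluorescence gain of 50% or more versus controls, with final raw signal at or below 3038400; inconclusive means same 50% fall but final raw signal above 3038400; inactive means fall in fluorescence gain under 50%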;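 further: plate controls were neutral control wells for no effect and wells lacking membranes for full effect; tested at 10 µM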
PABP FP inh: blocks human PABP binding to poly(A) RNA; P11940; fluorescence polarization; 1% of 290,000 active; inhibition, % at 35 µM;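 active means 50% or more with normal probe brightness, or confirmed in later tests; inconclusive means above 50% with abnormal brightness, or retests that disagree; inactive means below 50% or failed in later tests; about a fifth of its hits are not listed in these tables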;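 further: calls also rest on retests at 20 µM and on dose response follow-up; controls were probe without protein and protein plus probe with vehicle; some compounds called inactive have numbers as strong as hits; many hits fall short of the cut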
Target sequence (P11940 whole entry, looked up): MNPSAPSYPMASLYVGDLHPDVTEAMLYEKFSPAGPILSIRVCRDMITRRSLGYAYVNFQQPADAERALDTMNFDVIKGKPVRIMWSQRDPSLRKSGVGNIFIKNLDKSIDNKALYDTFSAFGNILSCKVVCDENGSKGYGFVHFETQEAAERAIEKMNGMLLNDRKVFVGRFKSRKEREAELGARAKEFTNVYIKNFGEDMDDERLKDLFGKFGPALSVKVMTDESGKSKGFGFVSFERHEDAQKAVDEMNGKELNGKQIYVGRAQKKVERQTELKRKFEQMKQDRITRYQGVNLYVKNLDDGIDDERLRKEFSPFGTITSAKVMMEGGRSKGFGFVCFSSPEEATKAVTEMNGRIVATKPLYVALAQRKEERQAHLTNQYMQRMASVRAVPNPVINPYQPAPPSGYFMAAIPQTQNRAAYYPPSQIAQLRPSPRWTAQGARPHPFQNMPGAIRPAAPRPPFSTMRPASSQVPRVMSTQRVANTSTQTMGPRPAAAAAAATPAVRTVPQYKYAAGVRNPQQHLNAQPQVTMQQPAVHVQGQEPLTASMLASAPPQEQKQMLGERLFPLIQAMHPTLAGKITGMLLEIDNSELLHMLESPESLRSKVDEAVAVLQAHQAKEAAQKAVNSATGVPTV
MT1-MMP act inh RFP: further read-out of MT1-MMP act inh, marked with its call; RFP signal change, %; measured here: RFP expression control read;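 0 = vehicle wells; hits needed this value within 50% of zero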
Starred values were filed as active, the others as inactive; i = inactive; ? = inconclusive; nt = not tested or not shown. An unsorted share of the library; about 2.9% have a hit in one of these screens.

SMILES	UUG fidelity	Env fusion inh	MT1-MMP act inh	MT1-MMP act inh RFP	eIF4H FP inh	CSC inhib	Rce1 inhib	PABP FP inh
Cc1nnsc1C(=O)N1CCC(C(=O)c2ccccc2)CC1	nt	0	nt	nt	-5	-16	i	-4
CC(C)c1ccc(C(=O)OCC(=O)NC2CCCC2)cc1	-8	-2	1	-2	-6	nt	i	-1
COc1ccccc1-c1csc(C(C)(O)c2ccccc2)n1 (centres undefined)	2	-4	1	-4	nt	nt	nt	nt
O=C(CSc1n[nH]c(=O)n1-c1cccnc1)Nc1ccccc1	-7	3	0	5	-2	-9	i	-3
Cc1c(-c2nnnn2-c2ccc(F)cc2)cnc2cc3c(cc12)OCO3	-19	12	2	1	-8	-11	i	3
O=[N+]([O-])c1ccc(N2CCN(S(=O)(=O)c3ccccc3)CC2)cc1NCC1CCCO1 (centres undefined)	-10	5	4	-2	-4	?	i	-10
Cc1ccc(N(CC(O)Cn2c3ccccc3c3ccccc32)S(C)(=O)=O)c(C)c1 (centres undefined)	-16	?	-2	-7	10	nt	i	-4
CCc1nccn1C(=O)c1cnn2c(C(F)F)cc(-c3ccccc3)nc12	nt	nt	nt	nt	7	-12	i	-2
CCOC(=O)C1=C(C)Nc2sc(C(=O)c3ccc(F)cc3)c(N)c2C1c1ccc(C(=O)OC)cc1 (centres undefined)	32	-115	-19	-19	-6	nt	i	-4
COc1ccccc1N1CCN(C(c2ccc(C)cc2)c2nnnn2C(C)C)CC1 (centres undefined)	10	nt	4	0	6	nt	i	2
CC1CCC(NS(=O)(=O)c2ccc3c(c2)CC(=O)N3)CC1 (centres undefined)	-7	-6	0	3	-8	-7	i	0
CCCC(=O)c1cc(-c2nc3ccccc3n2C)n(C)c1	-14	nt	-2	0	3	14	nt	4
Cc1cc(C(=O)N/N=C/c2ccccn2)n[nH]1	nt	1	5	7	-1	1	i	0
CC1CCN(CCCN2C(=O)C3C(C(=O)Nc4ccc(Cl)cc4)C4C=CC3(O4)C2C(=O)NC2CCCCC2)CC1 (centres undefined)	6	1	-2	-3	-8	-5	nt	6
COc1ccccc1C(=O)Nc1nnc(S(=O)(=O)N2CCCCC2)s1	13	-8	1	-3	-4	3	i	-2
O=C1CCC(/C=C/c2ccccc2)=NN1Cc1ccc(F)cc1	nt	4	-5	0	0	-1	i	-10
Nc1ccccc1C(=O)Nc1cccc(C(=O)O)c1	-37	nt	7	4	3	-7	i	-4
CCC(CC)C(=O)Nc1nnc(S(=O)(=O)Nc2ccccc2C)s1	-11	11	-1	1	16	-4	i	2
CCOc1cc2c(cc1OCC)C(c1ccc(F)cc1)NCC2 (centres undefined)	-8	15	-3	-1	nt	1	i	nt
COc1ccc(-c2noc(CN(C)S(=O)(=O)c3ccc(Cl)cc3)n2)cc1OC	-15	4	2	-6	-7	0	i	-1

The list goes on; the last five above are carried over.
SMILES	UUG fidelity	Env fusion inh	MT1-MMP act inh	MT1-MMP act inh RFP	eIF4H FP inh	CSC inhib	Rce1 inhib	PABP FP inh
O=C1CCC(/C=C/c2ccccc2)=NN1Cc1ccc(F)cc1	nt	4	-5	0	0	-1	i	-10
Nc1ccccc1C(=O)Nc1cccc(C(=O)O)c1	-37	nt	7	4	3	-7	i	-4
CCC(CC)C(=O)Nc1nnc(S(=O)(=O)Nc2ccccc2C)s1	-11	11	-1	1	16	-4	i	2
CCOc1cc2c(cc1OCC)C(c1ccc(F)cc1)NCC2 (centres undefined)	-8	15	-3	-1	nt	1	i	nt
COc1ccc(-c2noc(CN(C)S(=O)(=O)c3ccc(Cl)cc3)n2)cc1OC	-15	4	2	-6	-7	0	i	-1
O=C(NCc1ccccc1)c1nc[nH]c1C(=O)NCc1ccccc1	-10	-7	1	-2	0	nt	i	-2
CC(C)(C)C(=O)Nc1cc2c3c(c1)CCN3C(=O)CC2	-15	-9	-3	6	nt	-2	i	nt
Cc1ccc(S(=O)(=O)Nc2c(C)n(C)n(-c3ccccc3)c2=O)cc1C(=O)NCc1ccco1	-6	-2	-5	1	nt	nt	nt	nt
NC(=O)c1nsc(C(=O)N(Cc2ccco2)C(C(=O)NCC2CCCO2)c2ccc(F)cc2)c1N (centres undefined)	-32	-2	-3	-1	-9	nt	i	1
CCSc1nnc(-c2cccc(S(=O)(=O)N(CC)CC)c2)n1Cc1ccccc1	nt	22	0	-6	-1	-19	i	-8
CCN(CC)c1ccc(C=N/C(C#N)=C(\N)C#N)cc1	nt	-199	17	25	?	5	i	69*
CCSc1nnc([C@H](Cc2ccccc2)NC(=O)OC(C)(C)C)o1	0	-23	0	-3	3	-13	i	-7
O=C(CNC(=O)c1cccc(Br)c1)N/N=C/c1ccc2c(c1)OCO2	-16	10	4	8	3	nt	i	-3
Nc1nonc1-n1nnc(C(=O)N/N=C/c2ccc(Cl)cc2Cl)c1CN1CCCCC1	14	3	4	3	-2	nt	i	8
CC(Sc1nnc2c(n1)C1CCC2(C)C1(C)C)C(=O)Nc1ccccc1 (centres undefined)	nt	-15	0	-6	1	14	i	10
COc1ccc(C(=O)CSc2nnc(-c3ccccc3)o2)cc1	nt	nt	4	5	0	3	i	-4
CC(C)(c1ccccc1)c1ccc(OCc2ccc(C(=O)O)o2)cc1	-32	-77	2	4	nt	nt	nt	nt
COc1ccccc1-c1nc(SCC(=O)NCc2ccco2)c2c(=O)n(C)c(=O)n(C)c2n1	6	3	-10	5	1	-2	i	-4
O=C(Nc1cccnc1)c1ccc(Cl)c(Cl)c1	-10	-4	7	2	-8	6	nt	-6
CC(C)(C)n1nc2c(c1NC(=O)c1ccco1)CS(=O)C2 (centres undefined)	7	nt	2	2	5	-3	i	8
COc1cccc(NS(=O)(=O)CC23CCC(CC2=O)C3(C)C)c1 (centres undefined)	6	-15	nt	nt	1	19	i	2
CCN1CCN(c2ccc(S(=O)(=O)N3CCCCC3)cc2NC(=O)c2cccc(C)c2[N+](=O)[O-])CC1	nt	-10	5	1	nt	-8	i	nt
CCOC(=O)c1cc(NC(=O)c2cc(C)on2)cc(C(=O)OCC)c1	-17	-50	-2	1	1	7	i	3
CCN1C(=O)OC2(CCCCC2)C1(C)O (centres undefined)	nt	nt	nt	nt	5	-16	nt	2
CCCCNC(=O)CCCCC(=O)N/N=C/c1ccccc1Cl	nt	nt	3	4	5	-11	i	4
NC(=O)C1CCN(C(=O)C2CCN(C(=O)Nc3ccccc3)CC2)CC1	-19	-9	-3	5	nt	nt	nt	nt
C/C(=N\NC(=O)c1ccc(O)cc1O)c1cccnc1	-8	0	-4	0	-1	-2	i	0
CC(C)C(=O)N1CCN(c2nc(-c3ccccc3)c3c(c2C#N)CC(C)(C)OC3)CC1	nt	nt	-3	-6	-4	6	i	2
COc1ccc(CN2CCNC(=O)C2CC(=O)NCCN2CCCCC2=O)c(F)c1 (centres undefined)	26	16	0	4	7	-9	i	15
Nc1c(-c2ccc(F)cc2)cnc2ncnn12	-31	-80	6	3	-5	6	i	8
Cc1ccc2c3c([nH]c2c1)C(=O)CC(C)(C)S3	-10	2	0	0	2	-7	i	3
CC(C)NC(=O)C1Cc2c(-c3ccc4c(c3)OCO4)ccnc2O1 (centres undefined)	-5	0	-5	8	nt	nt	nt	nt
Cc1onc(-c2c(Cl)cccc2Cl)c1C(=O)n1nnc2ccccc21	nt	nt	nt	nt	8	-5	i	5
Cc1csc(NC(=O)/C=C/c2ccc3c(c2)OCO3)n1	nt	-131	1	-4	-9	60	i	-8
O=S(=O)(c1ccc(F)c(F)c1F)N1CCN(C(=S)Nc2ccccc2)CC1	nt	10	-5	-5	-3	17	i	5
COc1ccc(CC2(c3ccccc3)NC(=O)NC2=O)cc1 (centres undefined)	-18	-1	1	0	nt	nt	nt	nt
COc1ccccc1N(C)S(=O)(=O)c1ccc(Cl)c(C(=O)NNC(=O)c2ccccc2O)c1	10	-2	3	5	12	24	i	14
CCc1cc(=O)oc2cc(OCC(=O)NC3CC(C)(C)NC(C)(C)C3)ccc12	6	-4	3	2	nt	-20	i	nt
CCOc1cccc(C(=O)Nc2ccccc2C(=O)N2CCN(C)CC2)c1	-18	-9	2	3	0	2	i	14
O=C(C1CCN(c2ncnc3c2nc2n3CCCCC2)CC1)N1CCN(c2ccccc2F)CC1	-15	5	-2	-8	-8	-9	i	-4
COc1ccc(-c2cc(C(=O)N3CCCC3)c3ccccc3n2)cc1OC	10	18	-3	-2	-14	-10	i	-9
CCc1cc2c(NCc3ccco3)ncnc2s1	-10	80*	34*	-15*	-1	nt	i	10
CCOc1ccc2nc(NCCNS(=O)(=O)c3ccccc3)c(C#N)cc2c1	-16	-60	-8	5	-8	-5	i	45
O=C(Nc1ccc(Cl)cc1)N1CCC(c2nc(-c3ccc(F)cc3)no2)CC1	-13	nt	0	-15	-7	-1	i	-4
CCS(=O)(=O)N1CCC(C(=O)Oc2ccccc2)CC1	-4	4	1	0	-1	-11	i	5
CCN(CC)C(=O)CN1C(=O)C2CC=C(Cl)CC2C1=O (centres undefined)	-8	-30	-5	2	13	-1	i	14
Cc1cccc(C)c1NC(=S)N(Cc1ccco1)C1CCN(C(C)C)CC1	nt	0	0	3	15	-9	i	-8
CS(=O)(=O)N(CC(=O)NC1CCCC1)c1ccc(Oc2ccccc2)cc1	nt	3	2	-8	-3	2	i	-9
O=C(NCc1ccccc1)[C@H]1C[C@@H]1[C@H](NP(=O)(c1ccccc1)c1ccccc1)c1ccccc1	-16	-17	4	-5	3	-18	i	4
CC(C)(C)c1ccc(C(=O)NC(=S)NCC2CCCO2)cc1 (centres undefined)	nt	-25	7	5	-4	13	i	-4
O=c1oc2ccccc2c(NC2CCCCC2)c1NS(=O)(=O)c1ccc(F)c(Cl)c1	-19	11	1	1	-11	5	i	10
Cc1cc(C)c(C)c(S(=O)(=O)N2CCN(C(=O)CCc3nc4ccccc4c(=O)[nH]3)CC2)c1C	-6	nt	-6	3	-8	6	i	-1
COc1cc(Nc2ccn3nccc3n2)cc(OC)c1OC	-16	-67	-2	0	nt	nt	nt	nt
CC(=O)c1ccc(NC(=O)CSc2nc(N)c3cc4c(nc3n2)CCCC4)cc1	nt	nt	1	-1	3	nt	i	3
O=C(O)c1cc(-c2ccc(/C=N/Nc3ccc([N+](=O)[O-])cn3)o2)ccc1Cl	nt	3	-14	-5	5	nt	nt	2
CCOC(=O)c1ccc[n+](CC(=O)c2ccc(OC)cc2)c1	2	-21	4	9	39	-1	i	-4
CN=C1CC(C)(C)CC(=O)/C1=C(/O)CCCN1C(=O)c2ccccc2C1=O	nt	6	1	0	-1	-13	i	-3
CC1(C)CC2CC(C)(CN2C(=O)COC(=O)c2ccc(Cl)cc2N)C1 (centres undefined)	-19	nt	3	-5	0	19	i	9
Cc1nc(SCCO)c([N+](=O)[O-])[nH]1	nt	8	1	0	-7	-1	i	-2
C=CCn1c(SCC(=O)c2ccc(Cl)s2)nc2ccccc2c1=O	-20	29	-2	-2	-7	-6	i	-10
O=C(CN1CCOCC1)Nc1ccc([N+](=O)[O-])cc1Br	nt	-16	-3	0	-6	14	i	3
COc1ccc(CN2CCN(Cc3ccccc3C(F)(F)F)CC2)c(OC)c1	-2	11	-2	4	2	35	i	-4
C(=N\Nc1ncnc2sc3c(c12)CCC3)/c1cccs1	-21	32	-14	-6	18	94*	i	14
O=C(Nc1cc(-c2ccccc2)[nH]n1)c1ccccc1F	-27	-154	0	3	38	23	i	34
